# Compound activity (PubChem BioAssay)
# Sfp PPTase inh – qHTS Assay for Inhibitors of Bacillus subtilis Sfp phosphopantetheinyl transferase (PPTase) | 4'-phosphopantetheinyl transferase ffp (Bacillus subtilis), Q9F4F7 | Biochemical Sfp PPTase activity, qHTS | Potency, µM, inactives show max response, negative = inhibition, hits mostly inhibitors | actives 3.5% (n = 310,000) | AID 1490, 2009; active means well fitted inhibition curve with a large enough effect; inconclusive means small, poorly fitted or top-dose-only effect, or another doubt; inactive means no such curve, though single readings can be large or run the other way;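 further: the enzyme is Sfp with the accession as filed and its product quenches rhodamine fluorescence; potency means the concentration at half of the fitted maximal effect; 0% = enzyme reaction without inhibitor and -100% = no enzyme wells; top concentration of the series not given in the record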
#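 Sfp 15 nM + cpd, 15 min RT; start w/ rhodamine-CoA 5 uM, BHQ-2-YbbR 12.5 uM (final); 50 mM Hepes pH 7.6, 10 mM MgCl2, 0.01% NP-40, 0.01% BSA; read 525/598 nm at 0 and 30 min.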
# D2 potentiator – Beta-Arrestin HTS for Positive Allosteric Modulators of the Human D2 Dopamine Receptor: Potentiators; D(2) dopamine receptor (Homo sapiens), P14416; DiscoveRx D2 beta-arrestin cells, luminescence, 90 min; 100% = 57 uM dopamine signal; potentiation, % (test concentration not listed); actives 0.23% (n = 360,000); active = potentiation of 50% or more; inconclusive = 30% to 50%; inactive = 30% or less;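 further: compound concentration not given in the record; tested on top of an EC20 dose of dopamine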
# Target sequence (P14416 whole entry, looked up): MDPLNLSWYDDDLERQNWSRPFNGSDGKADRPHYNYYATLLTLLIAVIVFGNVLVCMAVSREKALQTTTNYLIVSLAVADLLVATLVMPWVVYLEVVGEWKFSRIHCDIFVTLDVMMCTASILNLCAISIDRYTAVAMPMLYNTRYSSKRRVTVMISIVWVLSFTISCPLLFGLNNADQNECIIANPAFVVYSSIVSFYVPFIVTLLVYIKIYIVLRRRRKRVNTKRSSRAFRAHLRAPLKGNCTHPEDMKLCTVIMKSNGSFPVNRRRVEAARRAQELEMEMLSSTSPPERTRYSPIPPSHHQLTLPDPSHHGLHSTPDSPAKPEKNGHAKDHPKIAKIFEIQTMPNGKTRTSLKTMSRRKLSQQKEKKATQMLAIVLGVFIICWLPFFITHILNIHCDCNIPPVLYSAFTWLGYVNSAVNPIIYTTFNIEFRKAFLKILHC
#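 D2 cells co-treated with compound plus 50 nM dopamine (EC20) for 90 min at 37 deg C to detect potentiation. Beta-arrestin recruitment was read as enzyme-fragment luminescence after 1 h at ambient temperature. Full response was set by 57 uM dopamine.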
# gsp antagonist – qHTS for Antagonists of gsp, the Etiologic Mutation Responsible for Fibrous Dysplasia/McCune-Albright Syndrome: qHTS | AID 624288, 2012 | actives 0.4% (n = 340,000) | Potency, µM (doses to about 76.9 µM), without a hit: at the highest dose activity change, negative = inhibition, hits mostly inhibitors | gsp-mutant cells, cAMP HTRF, 30 min; control for the full effect not named in the record; active = falling curve of any shape with a large fitted effect; inconclusive = falling curve, mostly with a smaller effect; inactive = flat or rising curve; cell line not stated here;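 further: intracellular cAMP measured with PDE inhibitor Ro 20-1724 present during compound exposure; potency means the concentration at half of the fitted maximal effect; on the % scale 0 is the no-effect control and ±100 the full control effect; nearly all actives have a fitted effect of over 65% in size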
#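 HTRF cAMP read-out (cAMP-d2 plus anti-cAMP antibody-K in lysis buffer, 30 min RT). Before lysis, cells are exposed to compounds with […] for 30 min at 37C in DPBS containing Ca/Mg, BSA and Tween 20.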
# ClpP mod – qHTS Assay for Activators of ClpP; ATP-dependent Clp protease proteolytic subunit (Bacillus subtilis (strain 168)), P80244; AID 651965, 2013; Potency, µM (titrated, usually from 57.5 µM), without a hit: top-dose activity change, negative = active; actives 1.9% (n = 340,000); purified B. subtilis ClpP, FRET peptide cleavage, 20 min; active = well fitted falling curve with a large enough effect; inconclusive = small, poorly fitted or top-dose-only effect; inactive = no such curve, though single readings can be large or run the other way; further: potency means the concentration at half of the fitted maximal effect; the source files actives as falling curves though it sought activators and does not explain the sign; nearly all actives have a fitted effect of over 65% in size; many hits overshoot -100%
# Target sequence (P80244 whole entry, looked up): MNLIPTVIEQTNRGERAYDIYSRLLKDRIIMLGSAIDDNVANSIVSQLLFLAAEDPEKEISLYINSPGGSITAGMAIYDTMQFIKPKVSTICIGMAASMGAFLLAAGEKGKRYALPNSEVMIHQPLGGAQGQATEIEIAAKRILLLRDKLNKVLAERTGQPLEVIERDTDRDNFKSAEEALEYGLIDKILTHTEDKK
#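 FRET quenching reversal measured ClpP activation: 10 microg/mL B. subtilis ClpP at pH 8 with the FRET-FV decapeptide, read at 430 nm after 320 nm excitation. The 20-min minus 0-min signal was scaled between DMSO/no-enzyme wells and ADEP (5.8 microM final).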
# TRPV1 potentiator – HTS Assay for Compounds that Act as Potentiators of the Vanilloid Receptor 1; AID 540277, 2011; TRPV1-expressing cells, Fluo-8 calcium influx, capsaicin EC20 potentiation; host cell line not named in the record; control for the full effect not named in the record; actives 0.02% (n = 320,000); Transient receptor potential cation channel subfamily V member 1 (Homo sapiens), Q8NER1; potentiation, % at 8.33 µM; active means potentiation above 80%; inconclusive means 30% to 80%; inactive means below 30%; further: 0% is about no effect
#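 Fluo-8 calcium influx in TRPV1-expressing cells, kinetic read (ex 480/em 520 nm). Compound added and read 3 min for agonist activity, followed by capsaicin at EC20 final and 2 min further read for enhancement.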
# Menin-MLL FL inh – qHTS Assay for Inhibitors Targeting the Menin-MLL Interaction in MLL Related Leukemias: Competition With Fluorescein Labeled MLL-derived Peptide. Fluorescence polarization, fluorescein-MLL peptide displacement from menin. FP activity change, % at 61.4 µM. 290,000 tested, under 10 active. AID 1766, 2009; inconclusive = falling polarisation curve, or a change in total fluorescence; inactive = total fluorescence flat and polarisation flat or rising; no compound was filed as active; the % refers to the polarisation; negative = inhibition;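 further: % of control where 0% means no effect; inhibitors lower the polarisation; unlabelled MLL peptide was the positive control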
# gsp agonist – qHTS for Agonist of gsp, the Etiologic Mutation Responsible for Fibrous Dysplasia/McCune-Albright Syndrome: qHTS. Potency, µM (doses to about 76.9 µM), without a hit: at the top dose activation (cAMP increase), hits mostly activators. AID 624287, 2012. actives 0.13% (n = 340,000). gsp mutant cells, cAMP HTRF, 30 min; control for the full effect not named in the record; active = well fitted activation curve with a large enough effect; inconclusive = small, poorly fitted or top-dose-only effect, or another doubt; inactive = no such curve, though single readings can be large or run the other way; cell line not stated here;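 further: phosphodiesterase inhibitor Ro 20-1724 added with compounds to block cAMP breakdown; potency means the concentration at half of the fitted maximal effect; nearly all actives have a fitted effect of over 60% in size; about a fifth of the inactives were tested at one dose only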
#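 Cells stably selected in G418 were plated at 2000/well, grown 16-24 hr, then given compounds in DMSO with the PDE inhibitor […] (300 uM solution added) for 30 min at 37C; cAMP was read by HTRF.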
# An asterisk follows results filed as active; ? = inconclusive; . = not tested or not shown; & = joins results of further samples; [ ] = remark or other dose.
SMILES,Sfp PPTase inh,D2 potentiator,gsp antagonist,ClpP mod,TRPV1 potentiator,Menin-MLL FL inh,gsp agonist
CNC(=S)NNC(=O)c1cccn(Cc2ccc(Cl)cc2Cl)c1=O,-3%,.,.,.,-2,2.4,.
O=C(CNC(=O)c1ccncc1)N/N=C/c1ccc(O)cc1O,21%,-14,-8%,-3.3%,-4,4.0,21%
CC(=O)N1c2ccc(S(=O)(=O)N3CCC(C(=O)N4CCC(C)CC4)CC3)cc2CC1C (stereo not given),20%,-10,-9%,2.6%,-2,2.8,-7%
CCOc1ccc(C2SCC(=O)N2c2c(C)n(C)n(-c3ccccc3)c2=O)cc1 (stereo not given),11%,-3,-4%,-1.5%,?,-5.4,0%
CCOC(=O)C1=C(C)C2C3C(=O)N(c4cc(C)ccc4C)C(=O)C3C1(C)C1C(=O)N(c3cc(C)ccc3C)C(=O)C21 (stereo not given),3%,2,-8%,-0.9%,-3,4.1,-3%
Cc1nc2c(C)cccn2c(=O)c1NC(=O)c1ccc2c(c1)OCO2,.,-34,4%,-8.3%,9,.,-12%[15.4 µM]
c1ccc(OCc2nnc3n2CCCCC3)cc1,14%,-2,-4%,1.9%,-4,2.2,-21%
COc1ccc(NC(=O)CN2C(=O)COc3ccc(S(=O)(=O)N4CCCCC4)cc32)cc1OC,1%,-8,-11%,0.9%&0.7%,-8,-2.4,?
Cc1ccc(C(=O)OCC(=O)Nc2sc3c(c2C#N)CCCCC3)cc1NC(=O)c1ccco1,12%,-5,-11%,-3.4%,4,3.8,-10%
CCCc1nnc(NC(=O)c2nc(S(=O)(=O)Cc3ccc(C)cc3)ncc2Cl)s1,-14%,-10,28µM*,0.8%&-0.1%,20,.,-11%
Cc1ccc(NC(=O)c2ccc(N3CCOCC3)c([N+](=O)[O-])c2)cc1S(=O)(=O)N1CCOCC1,12%,22,4%,-2.2%,-11,2.3,?
CCOC(=O)N1CCN(C(=O)Cn2cnc3ccccc3c2=O)CC1,9%,-5,-3%,.,?,1.6,5%[15.4 µM]
Cc1ccc(C)c(S(=O)(=O)N2CCN(C(=O)c3ccc(-n4cncn4)c([N+](=O)[O-])c3)CC2)c1,.,9,-28%,-0.3%,-3,.,-15%
CCNc1nc(-c2ccc(OC(F)F)cc2)c(C)s1,?,-7,-14%,.,-4,1.1,-29%
Cn1c(C(=O)N(Cc2ccccc2)Cc2ccccn2)cc2sccc21,-2%,-5,-14%,-2.4%,-8,1.5,19%
O=C1CCC(C(=O)N2CCCCO2)CN1Cc1cccc(C(F)(F)F)c1 (stereo not given),14%,12,7%,1.8%,-24,.,0%
CCOc1c(OC(C)=O)ccc(/C=C/c2ccc3cccc(OC(C)=O)c3n2)c1[N+](=O)[O-],1%,-13,?,-0.3%,1,2.4,-29%
COc1ccc(C2=NN(C(=O)CSc3cn(C)c4ccccc34)C(c3ccc(OC)cc3)C2)cc1 (stereo not given),2%,-9,-18%,-1.5%,0,-1.8,-1%
Cc1cc(NS(=O)(=O)c2ccccc2)n(-c2ccccc2)n1,9%,1,0%,-3.4%,7,4.5,?
COc1ccc2oc(C(=O)OCC(=O)Nc3ccccc3OC)c(C)c2c1,.,-6,-10%,-1.1%,8,.,6%[15.4 µM]

# Profiles, quoted from the list.
# Entry for Cc1ccc(C)c(S(=O)(=O)N2CCN(C(=O)c3ccc(-n4cncn4)c([N+](=O)[O-])c3)CC2)c1 → Sfp PPTase inh: .; D2 potentiator: 9; gsp antagonist: -28%; ClpP mod: -0.3%; TRPV1 potentiator: -3; Menin-MLL FL inh: .; gsp agonist: -15%
# Entry for O=C1CCC(C(=O)N2CCCCO2)CN1Cc1cccc(C(F)(F)F)c1 (stereo not given) → Sfp PPTase inh: 14%; D2 potentiator: 12; gsp antagonist: 7%; ClpP mod: 1.8%; TRPV1 potentiator: -24; Menin-MLL FL inh: .; gsp agonist: 0%

# The list goes on.
SMILES,Sfp PPTase inh,D2 potentiator,gsp antagonist,ClpP mod,TRPV1 potentiator,Menin-MLL FL inh,gsp agonist
CC(C)Oc1ccc(C(CC(=O)O)NC(=O)Cc2ccccc2)cc1 (stereo not given),10%,-5,10%,0.2%,-3,0.5,33%
C=CCn1cnnc1SCC(=O)NCC1COc2ccccc2O1 (stereo not given),.,-14,7%,2.4%,-24,.,-20%
COc1ccc(CN2CNc3nc4ccccc4n3C2)cc1,21%,-15,2%,1.4%,1,1.5,?
CC(C)(C)c1ccc(C(=O)N/C(=C\c2cccs2)C(=O)NCc2ccco2)cc1,11%,-20,-1%,1.9%,8,3.0,-45%[inhibitor]
CCC(C)C(=O)Nc1nccs1 (stereo not given),?,-2,5%,.,8,-0.9,12%[15.4 µM]
CS(=O)(=O)N1CCCC(C(=O)NCc2cccs2)C1 (stereo not given),15%,-7,6%,0.9%,8,1.3,16%
CCN(CCO)c1ncnc2c1sc1nc(C(C)C)c3c(c12)CC(C)(C)OC3,13%,-10,19%,-19%,4,3.5,?
CCn1cc(C(=O)O)c(=O)c2cc(F)c(N3CCN(C(=S)NC(=O)c4ccccc4Cl)CC3)cc21,-1%,-10,?,-6.2%,13,2.2,25%
O=C(Nc1cccc(O)c1)C1CC(c2ccc(Cl)cc2)=NO1 (stereo not given),16%,9,5%,.,-11,-0.1,29%
O=C(NNc1cccc([N+](=O)[O-])c1)/C(=C\c1cccnc1)NC(=O)c1ccccc1,-19%,-3,-4%,-1.7%,2,5.5,-1%
CN(C(=O)NC1CC(=O)N(c2ccc3c(c2)OCCO3)C1)c1ccccc1 (stereo not given),.,1,4%,-5.2%,-1,.,9%
O=C(NC(=S)Nc1ccc(S(=O)(=O)Nc2nccs2)cc1)c1cccc(F)c1,-6%,4,9%,-2.0%,0,-0.2,-58%[inhibitor]
O=C(NC1CCCCNC1=O)c1ccc(Cl)cc1 (stereo not given),-2%,-17,4%,28µM*,?,-1.4,-5%
COc1ccccc1-n1cnc2cc(C(=O)NCc3ccco3)ccc21,?,-9,-4%,-2.4%,16,1.6,-11%
COc1ccccc1CCNC(=O)CSc1nnc2ccc(-c3cccnc3)nn12,19%,-5,6%,-0.7%,?,-0.6,15%
O=C(Nc1sc2c(c1C(=O)O)CCCC2)c1ccccc1Cl,23%,3,?,.,0,-0.4,-23%
CCOC(=O)N(C)C[C@H]1OCc2cn(nn2)CCCC(=O)N([C@H](C)CO)C[C@@H]1C,.,5,.,-1.0%,.,.,-38%[inhibitor]
COc1ccccc1/C=C/C=N/n1c(-c2ccc(Cl)cc2Cl)n[nH]c1=S,-18%,-17,-13%,0.1%,?,-0.6,?
CCC(=O)Nc1ccc(NC(=O)c2ccccc2)nc1,27%,-2,4%,0.1%,3,-0.2,8%
COc1ccc(C(=O)N2CCCC(c3nc(-c4cccs4)no3)C2)cc1OC (stereo not given),-2%,-14,8%,-1.2%,15,1.9,5%

# Filtered by structure: the entries above with fluorine (4)
SMILES,Sfp PPTase inh,D2 potentiator,gsp antagonist,ClpP mod,TRPV1 potentiator,Menin-MLL FL inh,gsp agonist
CCNc1nc(-c2ccc(OC(F)F)cc2)c(C)s1,?,-7,-14%,.,-4,1.1,-29%
O=C1CCC(C(=O)N2CCCCO2)CN1Cc1cccc(C(F)(F)F)c1 (stereo not given),14%,12,7%,1.8%,-24,.,0%
CCn1cc(C(=O)O)c(=O)c2cc(F)c(N3CCN(C(=S)NC(=O)c4ccccc4Cl)CC3)cc21,-1%,-10,?,-6.2%,13,2.2,25%
O=C(NC(=S)Nc1ccc(S(=O)(=O)Nc2nccs2)cc1)c1cccc(F)c1,-6%,4,9%,-2.0%,0,-0.2,-58%[inhibitor]

# Following part:
SMILES,Sfp PPTase inh,D2 potentiator,gsp antagonist,ClpP mod,TRPV1 potentiator,Menin-MLL FL inh,gsp agonist
COCCN(C(=O)c1ccccc1Oc1ccccc1)c1c(N)n(CC(C)C)c(=O)[nH]c1=O,.,-1,15%,-2.9%,6,.,-10%
COc1ccc(C(C(=O)NCc2ccccc2)N(C(=O)c2snc(C(N)=O)c2N)C2CCCC2)cc1 (stereo not given),-3%,-1,.,.,5,-0.1,19%[15.4 µM]
O=C1NC2(CCSC2)C(=O)N1CC(=O)N(Cc1ccccc1)C1CCS(=O)(=O)C1 (stereo not given),17%,-4,9%,.,1,-5.0,-6%[15.4 µM]
NS(=O)(=O)c1ccc(CCNS(=O)(=O)Cc2ccc(Cl)cc2)cc1,19%,3,2%,.,-29,-0.8,-66%[inhibitor]
Cc1ccc(C(=O)Nc2ncccc2C)cc1S(=O)(=O)N1CCCCC1,.,-15,1%,-3.1%,-13,.,3%
CC(=O)N1CCOc2ccc(S(=O)(=O)N(C)c3ccc(C)cc3)cc21,14%,-6,5%,0.8%,0,-0.5,-56%[inhibitor]
